# TRPV1 PAM: enhances activation of the human vanilloid receptor TRPV1; TRPV1-expressing cells, Fluo-8 calcium influx, capsaicin EC20 potentiation; host cell line not named in the record; control for the full effect not named in the record; potentiation, % at 8.33 µM; 320,000 compounds, 0.02% hits; AID 540277; active means potentiation above 80%; inconclusive means 30% to 80%; inactive means below 30%; note: 0% is about no effect
# Target sequence (Q8NER1 whole entry, looked up): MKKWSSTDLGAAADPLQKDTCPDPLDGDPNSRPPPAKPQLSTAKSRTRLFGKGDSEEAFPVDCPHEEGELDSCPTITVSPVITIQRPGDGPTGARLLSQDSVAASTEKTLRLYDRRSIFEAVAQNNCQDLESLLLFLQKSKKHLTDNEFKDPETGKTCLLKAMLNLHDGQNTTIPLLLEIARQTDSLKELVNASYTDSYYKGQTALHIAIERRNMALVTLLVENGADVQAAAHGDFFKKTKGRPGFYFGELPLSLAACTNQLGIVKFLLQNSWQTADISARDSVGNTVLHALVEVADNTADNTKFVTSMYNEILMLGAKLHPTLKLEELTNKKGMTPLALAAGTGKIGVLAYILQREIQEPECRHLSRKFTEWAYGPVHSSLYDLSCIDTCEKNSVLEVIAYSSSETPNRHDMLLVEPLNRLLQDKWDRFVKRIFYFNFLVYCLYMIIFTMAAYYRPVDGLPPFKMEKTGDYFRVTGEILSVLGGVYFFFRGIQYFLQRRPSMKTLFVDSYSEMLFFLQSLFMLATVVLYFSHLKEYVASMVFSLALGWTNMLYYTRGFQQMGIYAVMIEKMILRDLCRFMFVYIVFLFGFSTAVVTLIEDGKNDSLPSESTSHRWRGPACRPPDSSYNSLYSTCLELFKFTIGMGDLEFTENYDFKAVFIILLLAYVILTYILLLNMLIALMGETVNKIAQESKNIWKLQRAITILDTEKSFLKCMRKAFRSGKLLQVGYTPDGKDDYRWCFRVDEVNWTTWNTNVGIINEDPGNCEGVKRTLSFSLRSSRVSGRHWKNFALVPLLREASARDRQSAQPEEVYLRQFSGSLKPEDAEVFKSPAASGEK
#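 Fluo-8 calcium influx in TRPV1-expressing cells, kinetic read (ex 480/em 520 nm). Compound added and read 3 min for agonist activity, followed by capsaicin at EC20 final and 2 min further read for enhancement.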
# TRPML1 blocker: human mucolipin-1 channel inhibition. TRPML1-inducible cells, Ca2+ dye fluorescence, FDSS; active compounds read low; inhibition of EC80 agonist-evoked calcium signal. activity change, negative = inhibition, % (concentration not given with the values). 390,000 compounds, 0.02% hits; in the data active means activity change below about -50%; inconclusive means about -30% to -50%; inactive means above about -30%;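 note: stimulus is agonist 54-4 at its EC80 concentration; % is set by controls: 0 for no effect and ±100 for the full control effect; the text of the record puts the active cut at -80%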
#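 Tet-induced TRPML1-DL cells loaded with Ca8 no-wash calcium dye were read kinetically on FDSS. Compound addition was followed by EC80 agonist 54-4 (4 uM final); inhibition was read over 110 s.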
# Menin-MLL FL inh: menin-MLL binding inhibition, fluorescein peptide; Fluorescence polarization, fluorescein-MLL peptide displacement from menin; FP activity change, % at 61.4 µM; 290,000 tested, under 10 active; inconclusive = falling polarisation curve, or a change in total fluorescence; inactive = total fluorescence flat and polarisation flat or rising; no compound was filed as active; the % refers to the polarisation; negative = inhibition;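 note: % of control where 0% means no effect; inhibitors lower the polarisation; unlabelled MLL peptide was the positive control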
# Sfp PPTase inh: inhibitors of Bacillus subtilis Sfp phosphopantetheinyl transferase; AID 1490; Q9F4F7; Biochemical Sfp PPTase activity, qHTS; Potency, µM, without a hit: max response, negative = inhibition, hits mostly inhibitors; 310,000 compounds, 3.5% hits; active = well fitted inhibition curve with a large enough effect; inconclusive = small, poorly fitted or top-dose-only effect, or another doubt; inactive = no such curve, though single readings can be large or run the other way;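 note: the enzyme is Sfp with the accession as filed and its product quenches rhodamine fluorescence; potency is the fitted concentration of half-maximal effect; 0% = enzyme reaction without inhibitor and -100% = no enzyme wells; top concentration of the series not given in the record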
#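 Fluorescence-quenching assay: 15 nM Sfp-PPTase preincubated 15 min at room temperature with compound, then 5 uM rhodamine-CoA and 12.5 uM BHQ-2-labelled YbbR peptide added. Fluorescence (ex 525/em 598 nm) read at start and after 30 min; difference gives rate.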
# PINK1 modulator: PINK1 expression modulation | 410,000 compounds, 0.2% hits | Potency, µM (doses to about 76.6 µM), without a hit: top-dose activation (PINK1 increase), usual class: activators | AID 624263 | PINK1 immunofluorescence, high-content cytometry, 24 h; active = well fitted activation curve with a large enough effect; inconclusive = small, poorly fitted or top-dose-only effect; inactive = flat fitted curve, though single readings scatter; cell line not stated here;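 note: potency is the fitted concentration of half-maximal effect; % of control where 0% means no effect; nearly all actives have a fitted effect of over 65% in size; a mitochondrial uncoupler was the plate control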
#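 Stable cell line treated 24 h with compounds at 5 concentrations (CCCP controls), then fixed and immunostained for PINK1 plus nuclear and cell stains; PINK1 immunofluorescence quantified by laser-scanning microplate cytometry.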
# ClpP mod: qHTS Assay for Activators of ClpP | 340,000 compounds, 1.9% hits | Potency, µM (titrated, usually from 57.5 µM), inactives show at the highest dose activity change, negative = active | purified B. subtilis ClpP, FRET peptide cleavage, 20 min; active = well fitted falling curve with a large enough effect; inconclusive = small, poorly fitted or top-dose-only effect; inactive = no such curve, though single readings can be large or run the other way; note: potency is the fitted concentration of half-maximal effect; the source files actives as falling curves though it sought activators and does not explain the sign; nearly all actives have a fitted effect of over 65% in size; many hits overshoot -100%
# Target sequence (P80244 whole entry, looked up): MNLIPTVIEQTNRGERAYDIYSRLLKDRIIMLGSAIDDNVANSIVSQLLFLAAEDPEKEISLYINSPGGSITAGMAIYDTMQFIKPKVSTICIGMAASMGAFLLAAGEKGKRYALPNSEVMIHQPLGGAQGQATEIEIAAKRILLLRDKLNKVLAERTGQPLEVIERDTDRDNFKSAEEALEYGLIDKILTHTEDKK
#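 Buffer: 100 mM Tris/HCl pH8, 100 mM KCl, 0.05% low protease BSA, 2.5% glycerol, 0.01% Tween-20. ClpP 10 microg/mL final; 20 min RT; delta FRET normalized to ADEP and DMSO controls.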
# TRPML1 agonist: activates the human TRPML1 channel; Q9GZU1; TRPML1-expressing cells, Ca2+ dye fluorescence, FDSS; host cell line not named in the record; reference of the full effect not given here; activation, % (test concentration not listed); 410,000 compounds, 0.12% hits; AID 624414; in the data active = activation above about 50%; inconclusive = about 30% to 50%; inactive = below about 30%; note: 0% is about no effect; the text of the record puts the active cut at 80%
#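 TRPML1-DL cells, Tet-induced overnight (~16 h, 37 degrees C), loaded 45-90 min at room temperature with Ca8 no-wash calcium dye plus quencher. FDSS fluorescence: 10 s baseline, compound pin-transfer, 110 s agonist read, then EC80 54-4 (4uM final) and 110 s antagonist read.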
# * hit, by the source's call; ? = inconclusive; . = no result given; [ ] = dose if it differs, or a comment.
Molecule	TRPV1 PAM	PINK1 modulator	ClpP mod	TRPML1 blocker	Menin-MLL FL inh	Sfp PPTase inh	TRPML1 agonist
Cc1ccc(P(=O)(CC(=O)O)c2ccc(C)cc2)cc1	-2	0.8%	5.0%	5	-1.0	27%	-0.6
COC(=O)[C@@]1(Cc2ccc(OC)cc2)[C@H]2c3cc(C(=O)N(C)C)n(Cc4c(CO)[nH]cc(C)c4=O)c3C[C@H]2CN1C(=O)c1ccccc1	.	-0.6%	-6.9%	6	-2.7	15%	6.3
O=C(CN1C(=O)NC2(CCCCCCC2)C1=O)NCc1ccc(F)cc1	.	0.6%	0.3%	-11	.	.	0.0
COc1ccc(/C=N/NC(=O)CO/N=C(\C)c2cccs2)cc1	11	0.9%	-1.5%	-2	1.2	11%	1.4
O=C1CSC(=Nc2cccc(Cl)c2Cl)N1Cc1cccnc1	.	-1.0%	.	18	1.6	8%	3.5
CCCCn1c(O)c(N=Nc2ccccc2O)c2ccccc21	-12	6.3%	-9.6%	33	.	.	4.9
CC1CCN(C(=O)c2[nH]cnc2C(=O)N(C)Cc2ccccc2)CC1	2	-0.3%	0.3%	16	.	.	-0.5
Cc1ccc(C)c(Nc2nc3ccccc3n3cnnc23)c1	-14	0.6%	?	-7	-9.2	0%	4.0
CCCN(C(=O)c1cn(-c2ccccc2)nc1-c1ccc(OC)cc1)C1CCS(=O)(=O)C1 (centres undefined)	-9	5.4%	-7.0%	-1	.	.	-1.0
CC1CCN(c2nc3c(-c4cccc(Br)c4)nnn3c3ccccc23)CC1	.	0.0%	-4.4%	-22	.	.	-0.5
CCCOc1ccc(C2C(C(=O)c3ccc(C)o3)=C(O)C(=O)N2Cc2cccnc2)cc1 (centres undefined)	1	.	.	.	-0.2	-13%	.
C=CCN(c1ccccc1Cl)S(=O)(=O)c1cccc(C(=O)NCCc2ccc(OC)cc2)c1	19	-0.5%	-3.0%	27	6.1	22%	5.1
Clc1cccc(CSc2nnc(-c3ccccn3)n2Cc2ccco2)c1	-7	-2.4%	1.2%	35	1.4	-20%	1.8
CC(C)CN(C(=O)Cn1c(Cl)nc2c1c(=O)n(C)c(=O)n2C)C1CCS(=O)(=O)C1 (centres undefined)	3	-2.6%	-0.7%	-12	.	.	0.1
Cc1cccc(NC(=O)Cn2nnc(-c3nc(-c4ccncc4)no3)c2N)c1	.	3.4%	17%	14	.	.	-0.6
CC(C)NC(=O)CN(CCc1ccccc1)S(C)(=O)=O	0	.	-3.2%	0	1.9	15%	0.0
Cc1c(/C(O)=C2/C(=O)C(=O)N(CCN3CCOCC3)C2c2cccs2)cnn1-c1ccccc1 (centres undefined)	2	1.8%	11µM*	-21	2.6	-1%	-0.7
CCOc1ccc(NC(=O)CCCCCN2C(=O)[C@@H]3Cc4ccccc4CN3C2=O)cc1	-34	-0.7%	0.3%	-4	.	5%	-0.4
O=C(c1cccc(Cl)c1)N(Cc1ccco1)C1CCS(=O)(=O)C1 (centres undefined)	-3	-0.5%	-0.2%	1	-0.5	4%	-0.7
COc1ccc(-c2cc(-c3nnc(-c4ccncc4)o3)c3ccccc3n2)cc1	12	6.4%	-4.5%	-9	2.0	20%	-0.4
CCN1C(=O)[C@H]2[C@@H](c3ccc(OC)cc3)N[C@]3(CCCN(Cc4ccc(C)cc4)C3=O)[C@H]2C1=O	.	2.4%	0.2%	3	.	.	0.1
CC(=O)NC1C(O)C[C@@](O)(C(=O)O)OC1[C@@H](O)C(O)CO (some centres undefined)	.	0.5%	.	.	-0.1	13%	.
COc1ccc(-c2cccc(C(=O)NCC(=O)O)c2)cc1	13	3.1%[38.3 µM]	-15%	17	4.0	1%	0.4
CC1CN(c2ccc([N+](=O)[O-])c(NCCOc3ccccc3)c2)CC(C)N1 (centres undefined)	11	-1.2%	.	28	-1.9	-5%	0.4
O=C(Nc1ccc(C2=CN(Cc3ccccc3)CCC2=O)cc1)OCc1ccccc1	.	0.5%	0.8%	-9	.	.	-0.5
CCOc1ccc(NC(=O)CSc2nnnn2CC(=O)O)cc1	-6	0.1%	3.1%	2	0.9	?	-0.5
COc1ccc(C(C)(C)C)cc1NC(=O)c1ccc[n+]([O-])c1	17	-1.3%	.	-1	2.5	10%	-0.5
O=C(CCN1C(=O)/C(=C/c2ccccc2Cl)SC1=S)Nc1cccnc1	7	9.5%	2.9%	20	.	-5%	2.8
COc1ccc2ccccc2c1CN1CCN(C(=O)c2ccccc2)CC1	-21	3.4%	-2.9%	-1	4.5	?	0.2
CCCNc1nc(NCc2ccccc2OC)c2cnn(C)c2n1	.	4.6%	-24%	21	.	.	3.8
Cc1ccc2c(c1)cc1c(=O)n(Cc3cccc(Cl)c3)nc(C)n12	.	0.1%	-7.6%	-7	.	.	-0.8
Cc1ccc(N2CCN(C(=O)c3c(C)oc4ncn(C)c(=O)c34)CC2)c(C)c1	.	0.2%	-1.4%	41	.	.	1.8
CC1(C)CC(NC(=O)COc2ccc3ccc(=O)oc3c2)CC(C)(C)N1	-4	1.4%	3.7%	8	-0.2	4%	0.1
COc1ccc(NC(=O)NCc2ccccn2)cc1	1	2.7%	0.2%	3	1.4	5%	-0.8
CCN(CC)CCCNc1oc(-c2ccccc2[N+](=O)[O-])nc1C#N	-1	3.1%	-29%	18	-8.0	-9%	0.1
CCOC(=O)C1CCN(Cc2ccccn2)CC1	-6	.	.	.	-2.9	?	.

# Taken from above.
# O=C(CCN1C(=O)/C(=C/c2ccccc2Cl)SC1=S)Nc1cccnc1 in PINK1 modulator → 9.5%
# CCN(CC)CCCNc1oc(-c2ccccc2[N+](=O)[O-])nc1C#N in TRPML1 blocker → 18

# The results go on.
Molecule	TRPV1 PAM	PINK1 modulator	ClpP mod	TRPML1 blocker	Menin-MLL FL inh	Sfp PPTase inh	TRPML1 agonist
Cc1cccc(N2CCN(C(=O)CN3C(=O)NC(C)(C4CC4)C3=O)CC2)c1C (centres undefined)	1	3.6%	-1.3%	-4	.	.	1.0
Cc1ccc(C2c3[nH]c4ccccc4c3CCN2C(=O)Nc2ccc(C)c(C)c2)cc1 (centres undefined)	.	1.3%	-9.9%	10	.	.	2.4
CCOC(=O)c1sc2nc(C)n(CC(=O)Nc3cccc(Cl)c3)c(=O)c2c1C	.	-0.1%	-4.0%	-3	.	.	-0.3
COc1cccc(CNC(=O)c2ccc(CS(=O)(=O)Cc3ccc(C)cc3)o2)c1	-39	0.5%	-0.6%	?	3.9	10%	-0.3
O=C(Cc1ccccc1F)Nc1cccc(S(=O)(=O)N2CCCCC2)c1	.	0.1%	-1.3%	12	.	.	-0.1
CC1CCCN(c2ccc(C(=O)Nc3cccnc3)cc2[N+](=O)[O-])C1 (centres undefined)	-3	0.4%	1.0%	15	-1.5	-2%	-2.0
CCOC(=O)C(=O)c1csc(NC(=O)CCSc2ccc(C)cc2)n1	8	7.2%	1.5%	15	-2.9	-1%	0.4
Cc1sc(NC(=O)CCS(=O)(=O)c2ccccc2)c(C#N)c1C	-4	8.7%	-4.0%	20	.	.	-0.8
O=C(CCS(=O)(=O)c1ccc(Br)cc1)NCCC1=CCCCC1	-17	-0.8%	0.2%	6	.	-1%	4.9
O=C(Cn1c(=O)oc2ccccc21)Nc1ccc2c(c1)OCCO2	9	-5.0%	-3.1%	-6	3.9	14%	3.3
O=C(OCC(=O)c1ccc[nH]1)c1ccccc1	-16	1.8%	-0.1%	.	8.3	-1%	.
COCCNC(=S)NN=C1CCC(c2ccccc2)CC1 (centres undefined)	21	0.4%	-0.2%	9	0.6	-13%	0.4
O=c1c2ccccc2c2ccccc2c(=O)n1CC1CCCO1 (centres undefined)	6	4.1%	-20%	7	-1.2	-19%	0.1
O=C(CN1CCOCC1)N1CCc2ccccc2C(c2ccccc2)C1 (centres undefined)	4	-0.5%	1.5%	-1	3.0	?	-0.6
CNC(=O)c1sc(N2N=C3/C(=C\c4ccccc4)CCCC3C2c2ccccc2)nc1C (centres undefined)	.	-3.1%	-4.3%	17	.	.	2.1
CCOC(=O)N(C)c1c(CC)nc2c(OCc3ccc(Cl)cc3)cccn12	.	5.0%	-2.1%	.	.	.	0.0
COc1ccc(S(=O)(=O)N(CC(=O)N2CCN(C)CC2)c2ccccc2)cc1OC	-16	4.0%	-7.4%	6	0.8	-1%	0.7
COc1ccc(C(C(=O)NCC2CCCO2)N(C(=O)CNC(=O)c2cccs2)c2ccc(C)cc2)cc1OC (centres undefined)	4	1.1%	.	16	-5.8	2%	0.7
c1csc(-c2nc(N3CCN(Cc4ccc5c(c4)OCCO5)CC3)c3ccccc3n2)c1	.	1.4%	?	.	.	.	-0.2
O=C(Cc1ccc(NC(=O)C2CCCN(C(=O)C3CCCC3)C2)cc1)Nc1cccc(C(=O)N2CCCCC2)c1 (centres undefined)	.	-0.8%	0.9%	35	.	.	0.4
O=C(Oc1cccc2c(O)cccc12)c1ccco1	.	0.2%	.	7	.	.	0.1
COc1ccc(CNC(=O)CN2C(=O)NC(c3ccccc3)(c3ccccc3)C2=O)cc1OC	.	2.5%	-3.1%	29	.	.	1.8
Cc1ccc(C)c(CSc2nnc([C@@H]3CCCN3)o2)c1	-5	-0.4%	.	7	2.3	-17%	1.5
CCOCCn1c(CN(Cc2ccccc2)Cc2ccccc2)nc2c1c(=O)n(C)c(=O)n2C	-24	0.6%	-1.1%	22	-1.2	-17%	0.6
COCCn1c(=O)c(-c2cccs2)nc2cnc(N3CCOCC3)nc21	.	3.5%	.	.	?	15%	.
O=C(CCn1cnc2ncccc2c1=O)N1CCN(c2cccc(Cl)c2)CC1	0	-0.2%	.	6	-2.1	17%	0.9
CCc1ccc(/C(C)=N/NC(=O)CNC(=O)/C=C/c2ccccc2OC)cc1	3	6.1%	.	18	-0.8	6%	1.7
O=C(NCc1ccc(F)cc1)C(c1ccccc1)c1ccccc1	-13	5.3%	-1.5%	60	0.6	10%	3.8

# High-throughput results: PubChem, National Center for Advancing Translational Sciences (NCATS)
